StopGo RLuc: FMDV 2A StopGo reporter, Renilla signal; HEK cells with a luciferase reporter of 2A StopGo recoding; Potency, µM (top dose mostly 57.5 µM), without a hit: at the top dose signal change, negative = less light; actives 0.32% (n = 120,000); active means well fitted falling curve with a large enough effect; inconclusive means small, poorly fitted or top-dose-only effect; inactive means no such curve, though single readings can be large or run the other way; note: nearly all actives have a fitted effect of over 55% in size; overnight with compound
StopGo FLuc: FMDV 2A StopGo reporter, firefly signal. HEK cells with a luciferase reporter of 2A StopGo recoding. Potency, µM (series often up to 57.5 µM), for inactives: at the highest dose signal change, negative = less light. actives 0.23% (n = 120,000). AID 1745856; active = well fitted falling curve with a large enough effect; inconclusive = small, poorly fitted or top-dose-only effect; inactive = no such curve, though single readings can be large or run the other way; note: nearly all actives have a fitted effect of over 60% in size; overnight with compound
Numbers without * were called inactive; ? = inconclusive; [ ] = another dose, or the depositor's remark. % is set by controls: 0 for no effect and ±100 for the full control effect; potency is the fitted concentration of half-maximal effect.

| smiles | StopGo RLuc | StopGo FLuc |
| --- | --- | --- |
| COc1cc2c(cc1OC)CN(C(=O)CCc1ncc(-c3ccc(F)cc3F)o1)CC2 | -4% | 0% |
| CCN(CC)CCNC(=O)c1cc2c(-c3cccc(OC)c3)nn(C)c2s1 | -7% | -14% |
| COc1ccccc1C(=O)Nc1nnc(S(=O)(=O)N2CCN(c3ccc(F)cc3)CC2)s1 | -3% | 15% |
| CC(C)c1ccc(NC(=O)Cn2nnc(C(=O)NCc3cccs3)c2N)cc1 | -9% | 6% |
| Cc1ccc(NC(=O)CC2(C(=O)O)CCCCC2)c(C)c1 | -13% | 17% |
| O=C(CN1CCN(C(=O)c2cccnc2OCC(F)(F)F)CC1)Nc1ccccc1Cl | 5% | -13% |
| CCOc1cc(CNCCSc2nnnn2-c2ccccc2)cc(Cl)c1OC | -11% | 22% |
| O=C(Oc1cccc2cccnc12)c1ccc(-c2ccccc2)cc1 | -6% | 12% |
| CCOC(=O)c1cnn(-c2ccc(OC)cc2)c1C1CCN(C(=O)OC(C)(C)C)CC1 | 65%[activator] | -24% |
| CC(C)(C)c1ccc(C(=O)NC(Nc2ccc(I)cc2)C(Cl)(Cl)Cl)cc1 (stereo not given) | ? | ? |
| Cc1oc(-c2ccccc2Cl)nc1CS(=O)CC(=O)NCc1ccccc1Cl (stereo not given) | 0% | -3% |
| COc1ccccc1C(=O)Oc1c(Sc2ccccc2)c(C)nn1-c1ccccc1 | -12% | -19% |
| O=C(Nc1ccccc1)C1CCN(S(=O)(=O)c2ccc3c(c2)CCC3)CC1 | -5% | 0% |
| COC(=O)c1c(NC(=O)c2c(-c3ccccc3)noc2C)sc2c1CCCCC2 | -7% | -5% |
| CCOC(=O)c1[nH]c(C)c(CCC(=O)N2CCC(C(=O)NCCN(C)C)CC2)c1C | -5% | -1% |
| COc1ccc(Cl)cc1NC(=O)Cn1cnc2c1c(=O)n(C)c(=O)n2C | -10% | -16% |
| COc1cc(C2CC(=O)c3cnc(N4CCN(CCO)CC4)nc3C2)cc(OC)c1OC (stereo not given) | -1% | 9% |
| O=C(Cc1c[nH]c2ccccc12)Nc1cc(S(=O)(=O)N2CCOCC2)ccc1N1CCCCCC1 | 77%[activator] | -24% |
| O=C(NCC(c1cccnc1)N1CCc2ccccc21)c1ccc(F)c(F)c1 (stereo not given) | 12% | -10% |
| CCOC(=O)C1C(=O)C=C(c2ccc(C)cc2)CC1c1ccc(CC)cc1 (stereo not given) | 12% | 14% |
| CCOc1ccccc1CNC(=O)CCCN1C(=O)c2cccnc2Oc2ccc(Cl)cc21 | -4% | -19% |
| CC(C)(C)c1ccc(-c2nc3ccccc3s2)cc1 | 23% | -28% |
| CCCn1nc(C(=O)Nc2cc(S(=O)(=O)N3CCCCC3)ccc2C)c2ccccc2c1=O | 18% | 2% |
| O=C(NCc1ccc(Cl)cc1)C1CCCN(c2nc3ccccc3n3cccc23)C1 (stereo not given) | -7% | -15% |
| Cc1ccc(S(=O)(=O)Nc2ccc(-c3cn4ccsc4n3)cc2)cc1 | -1%[1.06 µM] | 0% |

Rewritten field by field: part of the list above.
CCOC(=O)c1[nH]c(C)c(CCC(=O)N2CCC(C(=O)NCCN(C)C)CC2)c1C
- StopGo RLuc = -5%
- StopGo FLuc = -1%
CCN(CC)CCNC(=O)c1cc2c(-c3cccc(OC)c3)nn(C)c2s1
- StopGo RLuc = -7%
- StopGo FLuc = -14%
CCOC(=O)c1cnn(-c2ccc(OC)cc2)c1C1CCN(C(=O)OC(C)(C)C)CC1
- StopGo RLuc = 65%[activator]
- StopGo FLuc = -24%
Cc1oc(-c2ccccc2Cl)nc1CS(=O)CC(=O)NCc1ccccc1Cl (stereo not given)
- StopGo RLuc = 0%
- StopGo FLuc = -3%

Continuation:
| smiles | StopGo RLuc | StopGo FLuc |
| --- | --- | --- |
| CCC(C)NC(=O)CSc1nc2cc3c(cc2c(=O)n1CCCCCC(=O)NCc1ccc2c(c1)OCO2)OCO3 (stereo not given) | 0% | -15% |
| Cc1ccc(CNC(=O)CSc2nc3c(=O)n(C)c(=O)n(C)c3n2C)cc1 | 33%[activator] | 0% |
| CC(C)CCNC(=O)CCc1c[nH]c2ccccc12 | -9% | 9% |
| O=C(OCc1ccc(-c2ccccc2)cc1)c1cnc2ccccc2n1 | -3% | 14% |
| Cc1csc2nc(COc3ccccc3NC(=O)c3ccc(C(C)(C)C)cc3)cc(=O)n12 | -7% | 9% |
| O=C(CN1CCN(c2nccs2)CC1)NCc1ccc(F)cc1 | -10% | 0% |
| CCC(=O)Nc1ccc(CC)cc1-c1nc2ccccc2n(Cc2ccccc2)c1=O | -6% | -22% |
| Cc1cccc(CC(=O)NCCc2csc(-c3ccc(C(F)(F)F)cc3)n2)c1 | -17% | -20% |
| CCOC(=O)c1c(C)c(CCC(=O)NCCN2CCCC2)c(C)n1C | -11% | -8% |
| CCCCNC(=O)C(CC)Sc1nnc(-c2cccc(F)c2)c(-c2cccc(F)c2)n1 (stereo not given) | 4% | -23% |
| N#C/C(=C/c1ccc2c(c1)OCO2)C(=O)OCC(=O)N1CCCCC1 | 18% | 14% |
| Cn1c(=O)oc2cc(S(=O)(=O)N3CCC(C(=O)NCc4ccccc4)CC3)ccc21 | -18% | -26% |
| Cc1ccc(NS(=O)(=O)c2cc(C(=O)Nc3ccc4oc(C)nc4c3)ccc2C)cc1 | 96%[activator] | 52%[activator] |
| O=C(O)c1cc(=O)[nH]c(=O)[nH]1 | -10% | -13% |
| CCCNc1c(NC(=O)c2ccccc2OCC)c(=O)oc2ccccc12 | 21% | -1% |
| COC(=O)c1ccc(/C=C(/C#N)C(=O)Nc2ccc(N3CCOCC3)cc2)cc1 | 2% | 8% |
| O=C(NCc1cccs1)C1CCN(C(=O)N2CCOc3ccc(Cl)cc32)CC1 | 21% | -9% |
| O=C(Nc1ccc(Oc2ccc(Cl)cc2)c(Cl)c1)c1cc(I)cc(I)c1O | 9% | -6%[11.5 µM] |
| Cc1cc(C)c2nc(N(Cc3cccnc3)C(=O)CCOc3ccccc3)sc2c1 | -11% | -9% |
| CC(C)(C)c1cc(C(=O)OCCN2CCCCC2)cc(C(C)(C)C)c1 | 6% | 2% |
| CCc1ccc(OCC(=O)Nc2onc3c2CC(C)CC3)cc1 (stereo not given) | -3% | 18% |
| CCN1CCN(c2ccc(C(=O)OC)cc2NC(=O)COc2ccccc2)CC1 | 11% | -3% |
| Cc1noc(-c2ccc(OCc3ccccc3F)cc2O)c1-c1ccc(Br)cc1 | 7% | 16% |
| Cc1ccc(CNC(=O)c2ccc(C)o2)cc1 | -13%[1.06 µM] | 55%[activator] |
| COc1cc(/C=C2\Oc3cc(OC(=O)C(C)(C)C)ccc3C2=O)cc(OC)c1OC | 28% | 60%[activator] |
| O=C(CSc1cn(CCNC(=O)c2c(F)cccc2F)c2ccccc12)Nc1ccc(F)cc1 | 92%[activator] | ? |
| O=C(CSc1nnc(-c2cccs2)n1C1CC1)N1CCN(c2ncccn2)CC1 | -1% | 2% |
| Cc1ccc(NC(=O)CNC(=O)N2CC(=O)Nc3ccccc32)cc1F | -6% | 1% |
| O=C(O)c1ccc(F)c(Cl)c1 | 12% | 10% |
| Cc1ccc(-n2cc(C(=O)OCc3ccc(F)c(F)c3)c3ccccc3c2=O)cc1 | -10% | -24% |
| Cc1ccc(S(=O)(=O)n2nc(C)c(S(=O)(=O)N3CCCCCC3)c2C)cc1 | -12% | -12% |
| Cc1c(-c2ccccc2)nc2ccccc2c1C(=O)O | -13% | -5% |
| CCN(CC)CC(C)(C)NS(=O)(=O)c1ccccc1 | -4% | -10% |
| Cc1c(CCC(=O)NCCc2cccc(F)c2)c(=O)oc2cc(O)ccc12 | 0% | 25% |
| Cc1ccc(S(=O)(=O)C(CC(=O)c2ccc(Cl)cc2)C(=O)c2ccc(Cl)cc2)cc1 (stereo not given) | -15% | 171%[activator] |
| Cc1cc2nc(-c3cccc(NC(=O)COc4ccccc4)c3)oc2cc1C | 7% | 219%[activator] |
| CSc1ccc(CCNC(=O)c2ccc(-c3nc(COc4ccccc4)c(C)o3)cc2)cc1 | -2% | -5% |
| Cc1ccc(S(=O)(=O)N2CCN(Cc3cccc4cccnc34)CC2)c(C)c1 | -23% | -22% |
| Cn1c(NCc2ccccc2)nc2c1c(=O)n(Cc1ccc(Cl)c(Cl)c1)c(=O)n2C | -19% | -13% |
| Cc1cc(C)cc(C(=O)OCCCN(C)C2CN(Cc3cn(Cc4cccc(F)c4)nn3)S(=O)(=O)C2)c1 (stereo not given) | -16% | -19% |
| CCN(CC)S(=O)(=O)c1ccc2nc(NC(=O)c3cncc(Br)c3)sc2c1 | -3% | 27% |
| C=CCn1c(-n2nc(C)c(C)c2C)nc2c1c(=O)n(CC)c(=O)n2C | -13% | -3% |
| O=C(COC(=O)c1c2c(nc3ccccc13)CCCC2)c1ccc(Oc2c(Cl)cccc2[N+](=O)[O-])cc1 | -11% | -2% |
| Cc1ccc(NC(=O)CSc2nnc(COc3ccc(Cl)cc3)o2)cc1 | -18% | -21% |
| Cc1ccc(C2C=C(c3ccccc3OC(F)F)Nc3ncnn32)cc1 (stereo not given) | 0% | 0% |
| Cc1ccc(-c2c(CN3CCN(c4cc(Cl)ccc4C)CC3)csc2C)cc1 | -4% | -8% |
| Cc1cccc(-n2ncc(C(=O)N3CCN(C(=O)c4ccco4)CC3)c2C2CCN(C(=O)OC(C)(C)C)CC2)c1 | -11% | -16% |
| O=C(Nc1cc(F)ccc1F)N1CCC(CN2CCOCC2)CC1 | -8% | -5% |
| COC(=O)c1ccc(NC(=O)CC2C(=O)N(c3cccc(OC)c3)C(=O)N2C(C)C)cc1 (stereo not given) | 13% | 1% |
| Cc1ccc(S(=O)(=O)c2nc(-c3ccco3)oc2N2CCN(C)CC2)cc1 | 47%[activator] | 8% |

The results go on:
| smiles | StopGo RLuc | StopGo FLuc |
| --- | --- | --- |
| CCOC(=O)c1cccc(NC(=O)c2cn(-c3cccc(OC)c3)c(=O)c3ccccc23)c1 | -10% | -13% |
| CCCN(c1ccc(C(C)C)cc1)S(=O)(=O)c1ccc2c(c1)n(C)c(=O)c(=O)n2C | -14% | 0% |
| CCOC(=O)c1cc(S(=O)(=O)N2CCN(c3ccc(C)cc3C)CC2)[nH]n1 | 95%[activator] | -5% |
| Cc1nn2c(=O)cc(COC(=O)c3cccc(NC(=O)COc4ccc(C)c(C)c4)c3)nc2s1 | 2% | 14% |
| CCCCCC1CCC(c2ccc(-c3ccc(CC)cn3)cc2)CC1C (stereo not given) | 4%[1.06 µM] | -3% |
| CC(/C=N/NC(=O)C1CC1)c1ccccc1 (stereo not given) | 3% | 18% |
| Nc1nc(COC(=O)c2ccccc2Cl)nc2ccccc12 | 137%[activator] | 55%[activator] |
| COc1ccc(-c2nc(Cn3nnc(C(=O)Nc4ccccc4F)c3N)c(C)o2)cc1 | 0% | 0% |
| NCC#Cc1cccc(C(F)(F)F)c1 | 26% | 0% |
| Cc1ccc(Sc2ncccc2Cl)cc1 | 2% | 47%[activator] |
| O=C(Nc1cc(Cl)cc(Cl)c1)c1cc(S(=O)(=O)N2CCc3ccccc3C2)ccc1F | 3% | -10% |
| COC(=O)CSc1nc(N)c2c3c(sc2n1)CCCC3C (stereo not given) | -5% | 34%[activator] |
| Cc1cc2ccccc2n2c(SCC(=O)Nc3cccc(C(F)(F)F)c3)nnc12 | 10% | 0% |
| CCOc1cc(C2C(C(=O)OC)=C(C)NC3=C2C(=O)c2ccccc23)cc(Cl)c1O (stereo not given) | -4% | -9% |
| CCNC(=O)CN1CCN(C(C(=O)O)c2c[nH]c3ccc(Cl)cc23)CC1 (stereo not given) | -15% | -12% |
| O=C(Nc1ccccc1-n1cncn1)C1CC(=O)N(c2ccccc2F)C1 (stereo not given) | -2% | -12% |
| CCCCN(C)CCNC(=O)c1ccc2c(=O)n(CCc3ccccc3)c(=O)[nH]c2c1 | -11% | 11% |
| CCOC(=O)c1oc2ccccc2c1COC(=O)CNC(=O)c1ccccc1OC | -2% | 0% |
| Cc1nn(CC(C)C)c2sc(C(=O)Nc3cccc(S(=O)(=O)N(C)C)c3)cc12 | 29% | -15% |
| COCCNc1oc(-c2cccc(Cl)c2)nc1C#N | 30%[activator] | 182%[activator] |
| CCOC(=O)CNC(=O)CC(c1ccc(F)cc1)N1Cc2ccccc2C1=O (stereo not given) | 10% | -9% |
| CCc1ccccc1NC(=O)Nc1cccc(F)c1 | 72%[activator] | 0% |
| COc1ccc(NC(=O)c2c(NC(=O)CCC(=O)O)sc3c2CCC(C(C)(C)C)C3)cc1 (stereo not given) | 5% | 10% |
| c1coc(-c2cc(-c3nc(-c4ccc5c(c4)OCO5)no3)[nH]n2)c1 | 1% | 0% |
| CCOc1ccc(CCNC(=O)c2cc3c(s2)-c2ccccc2S(=O)(=O)C3)cc1 | ? | ? |
| O=S(=O)(Cc1ccc(Cl)cc1)c1nc2ccccc2nc1NC1CCCC1 | 1% | 17% |
| Cc1cccc(NC(=O)CSc2nc3cc([N+](=O)[O-])ccc3o2)c1 | 9% | 0% |
| COc1ccc2cc(S(=O)(=O)c3cccc(Cl)c3)c(=O)oc2c1 | -9% | -13% |
| N#Cc1cc2c(cc1-c1cc3c(cc1C(=O)C1CC1)OCCO3)OCCO2 | 173%[activator] | 78%[activator] |
| Cc1ccc(-c2c(C)n([O-])c(C)c(-c3ccc(F)cc3)[n+]2=O)cc1 | 7% | 6% |
| Cc1ccc(C(=O)C(=O)O)cc1C | -4% | 2%[11.5 µM] |
| O=C(NCCc1cccs1)c1cc(-c2ccccc2)n[nH]1 | 33%[activator] | 216%[activator] |

Not a hit list; any-hit rate near 0.55%.
